PD-1 reversal – activators reversing PD-1 mediated T-cell inhibition; primary human CD4 T cells, PD-L1 beads, CellTiter-Glo 96 h; activation, % (no concentration beside the values); 29,000 tested, under 10 active; AID 2316;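 active = replicate mean of 50% or more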;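 also: 0% = median vehicle wells and 100% = positive control; 100 nL library stock added to about 50 µL; numbers are from one replicate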
YB-1 expr inh – YB-1 expression inhibition; 0.37% of 30,000 active; delta delta Cp (YB-1 minus CDIP) (no concentration beside the values); AID 434959; U2OS, qRT-PCR YB-1 vs CDIP delta delta Cp, 16 h; stronger effect = higher value; zero = DMSO, each unit about twofold;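 active = delta delta Cp rounded down to an integer at or above 3, about 3 SD of DMSO wells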;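 also: higher means less YB-1 transcript or more CDIP transcript relative to DMSO; stock transfer was 100 nL into about 100 µL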
Shh pathway inh – Sonic Hedgehog pathway inhibition; Shh-LIGHT2 Gli-luciferase reporter, 30 h; inhibition, % (concentration not given with the values); 2.1% of 22,000 active;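 active = replicate mean of 65% or more; inconclusive = mean lower but half the replicates past it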;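 also: pathway switched on by Shh-conditioned medium diluted 1 in 25 in low serum; 100 nL library stock added to about 40 µL; 0% = median of neutral wells and 100% = positive control level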
MITF inh – blocks MITF activity | TRPM1 promoter luciferase, luminescence, 24 h | inhibition, % (no concentration beside the values) | 0.28% of 37,000 active | AID 2240;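 active = most replicates at 85% or more, or half of them and the mean; inconclusive = half reach 85% but not the mean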;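 also: human melanocyte line stably carrying TRPM1 promoter luciferase reporter; 0% = vehicle wells and 100% = a positive control; the first replicate is given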
* marks the source's active call; other numbers are inactive results; ? = inconclusive; · = no result given. These rows are one share of the data, so the mix of outcomes need not match the whole.

The line under a structure holds: PD-1 reversal	YB-1 expr inh	Shh pathway inh	MITF inh
- COc1ccc(CN(C)C[C@@H]2Oc3ccc(NC(=O)CCC(F)(F)F)cc3C(=O)N([C@H](C)CO)C[C@H]2C)cc1
→ ·	-0.15	10	-3
- COc1ccc(NC(=O)N(C)C[C@H]2Oc3ccc(NC(=O)CCCN(C)C)cc3C(=O)N([C@@H](C)CO)C[C@@H]2C)cc1
→ 0.2	-0.18	-15	11
- CCOC(=O)CSc1nnc(-c2ccccc2)n1-c1cccc(C)c1
→ -1.1	·	·	-2
- C[C@H]1CN([C@@H](C)CO)C(=O)Cc2cc(NS(=O)(=O)c3ccc(Cl)cc3)ccc2O[C@@H]1CN(C)Cc1ccc(C(=O)O)cc1
→ 0.9	-0.17	-3	-6
- Cc1noc(C)c1S(=O)(=O)Nc1ccc2c(c1)CC(=O)N([C@H](C)CO)C[C@@H](C)[C@@H](CN(C)Cc1ccc3c(c1)OCO3)O2
→ ·	-0.036	·	-10
- Cc1ncc(CO)c(/C=N/O)c1O
→ 0.2	-0.14	·	13
- Cc1cc(C)c(N=C(NN)N(C)C)cc1C
→ 2.3	-0.62	-68	4
- Cc1noc(C)c1S(=O)(=O)Nc1ccc2c(c1)C(=O)N([C@H](C)CO)C[C@H](C)[C@H](CN(C)Cc1ccc(C(=O)Nc3ccccc3N)cc1)O2
→ -2.4	-0.16	·	11
- CC(C)(C)c1ccc(-c2cc3ccccn3c2)cc1
→ 0.6	10*	-3	-5
- O=[N+]([O-])c1ccc(NCCNCc2cccnc2)cc1
→ 1.0	·	·	-3
- COc1ccc(S(=O)(=O)N(C)C[C@H]2Oc3ccc(NS(=O)(=O)c4cn(C)cn4)cc3CC(=O)N([C@@H](C)CO)C[C@H]2C)cc1
→ 1.8	0.061	-18	-1
- CCCS(=O)(=O)N1CCN(C2CCN(C(=O)OCC)CC2)CC1
→ -1.9	0.26	18	13
- Cc1cc(Cl)ccc1NC(=O)CSc1nnc(-c2ccc(Br)cc2)n1C
→ 2.2	·	·	-4
- CC(C)NC(=O)N(C)C[C@@H]1Oc2ccc(NS(=O)(=O)c3ccc(F)cc3)cc2CC(=O)N([C@@H](C)CO)C[C@@H]1C
→ ·	-0.11	-22	10
- Cc1c(CNC(=O)c2cnn3c2NC(c2ccc(Br)cc2)CC3C(F)(F)F)cnn1C (stereo not drawn)
→ 0.9	·	·	-3
- C[C@H](CO)N1C[C@H](C)[C@H](CN(C)Cc2ccc(C(F)(F)F)cc2)Oc2c(NC(=O)Nc3ccc(C(F)(F)F)cc3)cccc2C1=O
→ -4.8	0.011	-43	21
- Cc1ccc(C)c(-n2nnnc2SCC(=O)Nc2ccccc2[N+](=O)[O-])c1
→ 0.8	·	·	38
- C[C@@H]1CN([C@@H](C)CO)C(=O)c2cc(NC(=O)Cc3ccccc3)ccc2O[C@H]1CN(C)Cc1ccc(Oc2ccccc2)cc1
→ ·	0.22	·	34
- Cc1noc(C)c1NC(=O)N(C)C[C@H]1Oc2c(NC(=O)c3ccc(-c4nccs4)cc3)cccc2C(=O)N([C@@H](C)CO)C[C@@H]1C
→ 0.7	0.028	1	0
- C[C@@H]1CN([C@@H](C)CO)C(=O)c2cccc(NC(=O)C3CC3)c2O[C@@H]1CN(C)Cc1ccc(Oc2ccccc2)cc1
→ 2.1	0.53	5	-7
- O=C(CSc1nc2sc3c(c2c(=O)n1Cc1ccco1)CCC3)c1cc(Cl)sc1Cl
→ -2.0	·	·	2
- COC(=O)c1ccccc1NC(=O)CSc1nc(-c2ccc(F)cc2)cs1
→ -1.5	·	·	-1
- COc1ccc(S(=O)(=O)Nc2cccc3c2O[C@@H](CN(C)C(=O)Nc2c(C)noc2C)[C@@H](C)CN([C@H](C)CO)C3=O)cc1
→ 0.3	0.71	10	3
- C[C@H]1CN([C@@H](C)CO)C(=O)c2cccc(NC(=O)C3CC3)c2O[C@@H]1CN(C)C(=O)NC1CCCCC1
→ ·	-0.4	-8	-9
- Cc1ccc(S(=O)(=O)NCC(=O)Nc2cccc(Cl)c2)cc1
→ -1.2	·	·	7
- C[C@@H]1CN([C@H](C)CO)C(=O)Cc2cc(NS(C)(=O)=O)ccc2O[C@@H]1CN(C)Cc1ccc(C(=O)Nc2ccccc2N)cc1
→ 1.0	0.13	·	-13
- COc1ccc(NC(=O)Nc2ccc3c(c2)C(=O)N([C@@H](C)CO)C[C@@H](C)[C@H](CN(C)C(=O)Nc2ccccc2)O3)cc1
→ -0.8	-0.19	-33	-10
- C[C@H]1CN([C@@H](C)CO)C(=O)c2cc(NS(=O)(=O)c3ccc(Cl)cc3)ccc2O[C@@H]1CN(C)S(=O)(=O)c1cn(C)cn1
→ 1.2	-0.36	-5	-2
- CC(C(=O)Nc1nccs1)C1SC(=O)NC1=O (stereo not drawn)
→ 0.2	-9.5	-25	-2
- Cc1cc(NS(=O)(=O)c2cccc([N+](=O)[O-])c2)no1
→ 2.0	·	·	-10

Overlap with the part before: three entries, followed by the next part.
The line under a structure holds: PD-1 reversal	YB-1 expr inh	Shh pathway inh	MITF inh
- C[C@H]1CN([C@@H](C)CO)C(=O)c2cc(NS(=O)(=O)c3ccc(Cl)cc3)ccc2O[C@@H]1CN(C)S(=O)(=O)c1cn(C)cn1
→ 1.2	-0.36	-5	-2
- CC(C(=O)Nc1nccs1)C1SC(=O)NC1=O (stereo not drawn)
→ 0.2	-9.5	-25	-2
- Cc1cc(NS(=O)(=O)c2cccc([N+](=O)[O-])c2)no1
→ 2.0	·	·	-10
- O=C(O)[C@H]1O[C@@H](Oc2c(-c3ccccc3)cc(O)c(-c3ccccc3)c2O)[C@H](O)[C@@H](O)[C@@H]1O
→ 0.9	-0.32	-27	-23
- COc1ccc(NC(=O)N(C)C[C@@H]2Oc3c(NC(=O)Nc4cccc5ccccc45)cccc3C(=O)N([C@H](C)CO)C[C@@H]2C)cc1
→ -4.3	-1.1	-25	14
- C[C@@H]1CN([C@@H](C)CO)C(=O)c2cc(NC(=O)Nc3ccc(C(F)(F)F)cc3)ccc2O[C@H]1CN(C)Cc1ccncc1
→ -4.5	0.15	·	-4
- CCc1cccc2c1NC(=O)C21OCCO1
→ 0.8	-0.56	10	-28
- C[C@H](CO)N1C[C@H](C)[C@H](CN(C)S(=O)(=O)c2ccc(Cl)cc2)Oc2ccc(NS(=O)(=O)c3ccc(Cl)cc3)cc2CC1=O
→ 2.8	0.44	12	-4
- C[C@@H]1CCCCO[C@H](CN(C)C(=O)CCCN(C)C)[C@@H](C)CN([C@H](C)CO)C(=O)c2cc(NC(=O)Cc3ccccc3)ccc2O1
→ ·	0.17	-23	-9
- C[C@H](CO)N1C[C@H](C)[C@H](CN(C)Cc2ccc(C(F)(F)F)cc2)Oc2c(NS(=O)(=O)c3ccc(Cl)cc3)cccc2C1=O
→ -1.1	0.052	46	4
- C[C@H]1CN([C@@H](C)CO)C(=O)c2cccc(NC(=O)Nc3cccc4ccccc34)c2O[C@@H]1CN(C)S(=O)(=O)c1cccs1
→ ·	-0.054	1	-19
- C[C@@H]1CN([C@@H](C)CO)C(=O)c2cc(NC(=O)NC3CCCCC3)ccc2O[C@@H]1CN(C)Cc1ccc(Cl)c(Cl)c1
→ -0.9	0.1	20	32
- C[C@@H]1CN([C@H](C)CO)C(=O)c2cccc(NC(=O)Nc3ccc4c(c3)OCO4)c2O[C@@H]1CN(C)S(C)(=O)=O
→ 1.7	-0.36	3	-20
- Cc1ccc(S(=O)(=O)N(C)C[C@H]2Oc3ccc(NC(=O)Nc4ccc(F)cc4)cc3C(=O)N([C@H](C)CO)C[C@H]2C)cc1
→ 0.5	0.24	-11	8
- O=C1NC(=O)C(c2ccccc2)N1 (stereo not drawn)
→ 0.6	-0.48	-10	10
- C[C@@H]1CN([C@@H](C)CO)C(=O)c2cccc(N(C)C)c2O[C@H]1CN(C)Cc1ccc(Oc2ccccc2)cc1
→ -1.2	0.15	-12	1
- Cc1ccc(Cl)cc1N(CC(=O)Nc1ccc(C(N)=O)cc1)S(C)(=O)=O
→ 0.2	·	·	-22
- Cc1ccc(S(=O)(=O)N(C)C[C@H]2Oc3c(NS(=O)(=O)c4cccs4)cccc3C(=O)N([C@H](C)CO)C[C@@H]2C)cc1
→ ·	0.39	-21	0
- C[C@@H]1C[C@H]2[C@@H]3C[C@H](F)C4=CC(=O)C=C[C@]4(C)[C@@]3(Cl)[C@@H](O)C[C@]2(C)[C@H]1C(=O)COC(=O)C(C)(C)C
→ ·	-0.015	40	-55
- COc1ccc(S(=O)(=O)N(C)C[C@H]2Oc3c(NC(=O)CCCCCC(=O)Nc4ccccc4N)cccc3C(=O)N([C@@H](C)CO)C[C@@H]2C)cc1
→ -1.2	0.25	·	13
- C[C@H]1CN([C@@H](C)CO)C(=O)c2cc(NC(=O)Cn3cnnn3)ccc2O[C@H]1CN(C)Cc1ccc2c(c1)OCO2
→ -0.3	0.23	-45	-5
- Cc1ccc(-n2c(C)nnc2SCC(=O)Nc2ccc(Cl)c(C(F)(F)F)c2)cc1
→ -1.5	·	·	-35
- Cc1noc(C)c1NC(=O)Nc1ccc2c(c1)C(=O)N([C@H](C)CO)C[C@@H](C)[C@@H](CN(C)Cc1ccc3c(c1)OCO3)O2
→ ·	0.24	-19	-4
- C[C@H](CO)N1C[C@H](C)[C@@H](CN(C)C(=O)NC2CCCCC2)Oc2ccc(NC(=O)C3CC3)cc2C1=O
→ 2.2	0.048	·	-1
- CCn1c(SCC(=O)Nc2sc3c(c2C#N)CCCC3)nnc1-c1ccccc1O
→ 0.0	·	·	33
- C[C@@H]1CN([C@H](C)CO)C(=O)c2cccc(NC(=O)C3CCCCC3)c2O[C@H]1CN(C)Cc1ccc(Cl)c(Cl)c1
→ -1.2	-0.25	?	15
- CNC[C@H]1Oc2ccc(NS(=O)(=O)c3cn(C)cn3)cc2C(=O)N([C@@H](C)CO)C[C@@H]1C
→ 1.0	-0.093	-11	-12
- O=C1Nc2ccccc2/C1=C\c1c(Cl)[nH]c2ccccc12
→ -1.2	0.29	30	40
- O=S(=O)(c1ccc(Cl)cc1)n1cnc2ccccc21
→ 0.9	0.021	·	2
- Cc1noc(C)c1S(=O)(=O)N(C)C[C@H]1Oc2ccc(NC(=O)Nc3ccccc3)cc2CC(=O)N([C@@H](C)CO)C[C@@H]1C
→ -0.9	-0.31	-9	-7
- Cc1ccc(S(=O)(=O)N(C)C[C@@H]2Oc3ccc(N(C)C)cc3C(=O)N([C@@H](C)CO)C[C@H]2C)cc1
→ -2.5	-0.2	-8	12
- C[C@@H]1CN([C@@H](C)CO)C(=O)c2cccc(NC(=O)NC3CCCCC3)c2O[C@@H]1CN(C)C(=O)Nc1ccc2c(c1)OCO2
→ ·	-0.041	-72	-3
- C[C@H]1CN([C@@H](C)CO)C(=O)Cc2cc(NC(=O)C3CCCCC3)ccc2O[C@@H]1CN(C)Cc1ccc(C(F)(F)F)cc1
→ ·	0.15	4	23
- O=C(Nc1ccc(S(=O)(=O)Nc2ccccn2)cc1)c1cccnc1
→ 0.2	·	·	-18
- CCCN(C)C[C@H]1OCCCC[C@@H](C)Oc2ccc(NS(=O)(=O)c3ccc(C)cc3)cc2C(=O)N([C@H](C)CO)C[C@@H]1C
→ 2.4	0.32	-5	24
- C[C@H]1CN([C@@H](C)CO)C(=O)c2cc(NS(=O)(=O)c3ccc(F)cc3)ccc2O[C@@H]1CN(C)Cc1ccc(-c2ccccc2)cc1
→ 0.0	-0.18	28	2
- C[C@@H]1CN([C@@H](C)CO)C(=O)Cc2cc(NC(=O)Nc3cccc4ccccc34)ccc2O[C@@H]1CN(C)C(=O)Nc1ccc(C(F)(F)F)cc1
→ -6.0	0.26	28	24
- C[C@H](CO)N1C[C@H](C)[C@H](CN(C)S(=O)(=O)c2ccc(Cl)cc2)Oc2ccc(NC(=O)Nc3cccc4ccccc34)cc2C1=O
→ -0.9	-0.39	17	1
- N#Cc1c(NC(=O)CSc2ncn[nH]2)sc2c1CCCCC2
→ -1.1	·	·	104*
- NC(N)=NS(=O)(=O)c1ccc(NC(=S)NC(=O)/C=C/c2ccc(F)cc2)cc1
→ -1.4	-0.42	-19	7
- C[C@@H]1CN([C@H](C)CO)C(=O)Cc2cc(NC(=O)C3CC3)ccc2O[C@@H]1CN(C)Cc1ccc(-c2ccccc2)cc1
→ -1.2	0.3	-3	8
- COc1ccc(CN=C(N)N)cc1
→ 0.2	0.2	-24	-4
- CC[N+](CC)(CC)CC(=O)Nc1c(C)cccc1C
→ ·	-0.53	-37	-9
- COc1ccc2nc(SCC(=O)Nc3cccc(C(F)(F)F)c3)[nH]c2c1
→ -4.3	·	·	19
- COc1cc(O)c(C(=O)/C=C/c2ccccc2)c(OC)c1
→ ·	0.14	21	-18
- COc1ccc(CN(C)C[C@H]2Oc3ccc(NC(=O)Nc4ccccc4)cc3C(=O)N([C@@H](C)CO)C[C@@H]2C)cc1
→ 1.8	-0.17	24	4
- Nc1ncnc(NCc2cccnc2)c1[N+](=O)[O-]
→ 0.2	·	·	-49
- COc1ccc(NC(=O)Nc2ccc3c(c2)CC(=O)N([C@H](C)CO)C[C@@H](C)[C@H](CN(C)C(=O)Nc2ccc(C(F)(F)F)cc2)O3)cc1
→ ·	-0.82	·	6

High-throughput results: PubChem BioAssay, Broad Institute
